gsp antagonist: qHTS for Antagonists of gsp, the Etiologic Mutation Responsible for Fibrous Dysplasia/McCune-Albright Syndrome: qHTS | gsp-mutant cells, cAMP HTRF, 30 min; control for the full effect not named in the record | AID 624288, 2012 | Potency, µM (top dose mostly 76.9 µM), for the others: at the top dose activity change, negative = inhibition, most hits filed as inhibitors | actives 0.4% (n = 340,000); active = falling curve of any shape with a large fitted effect; inconclusive = falling curve, mostly with a smaller effect; inactive = flat or rising curve; cell line not stated here;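 further: intracellular cAMP measured with PDE inhibitor Ro 20-1724 present during compound exposure; potency means the concentration at half of the fitted maximal effect; on the % scale 0 is the no-effect control and ±100 the full control effect; nearly all actives have a fitted effect of over 65% in size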
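HTRF cAMP measurement after 30 min RT detection following 30 min, 37C compound treatment alongside […] (added as 300 uM solution) in G418-selected cells seeded at 2000/well and grown 16–24 h.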
Six1-Eya2 blk: qHTS Assay for Inhibitors of the Six1/Eya2 Interaction; Homeobox protein SIX1 (Homo sapiens) + Protein phosphatase EYA2 (Homo sapiens), …; AID 651725, 2012; actives 0.56% (n = 360,000); AlphaScreen GST-Six1/His-Eya2 binding, biochemical; active compounds read low; control for the full effect not named in the record; activity change, % (concentration not given with the values); in the data active = activity change below about -65%; inconclusive = about -30% to -65%; inactive = above about -30%; further: on the % scale 0 is the no-effect control and ±100 the full control effect
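Homogeneous AlphaScreen proximity assay pairing GST-Six1 with His-tagged Eya2 (added as 5X mix: 250 nM and 500 nM) in 50 mM Tris pH 8.0, 300 mM NaCl, 1 mM TCEP. Glutathione donor and nickel acceptor beads; 1 h, 37 °C, dark.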
CtBP-E1A blk: qHTS Assay for Inhibitors of the CtBP/E1A Interaction; CtBP / adenovirus E1A interaction (AlphaScreen); AlphaScreen GST-E1A/His-CtBP binding, 1536-well; active compounds read low; control for the full effect not named in the record; activity change, % (no concentration beside the values); actives 0.49% (n = 340,000); in the data active means activity change below about -65%; inconclusive means about -30% to -65%; inactive means above about -30%; further: on the % scale 0 is the no-effect control and ±100 the full control effect
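AlphaScreen with 125 nM GST-E1A and 125 nM His-CtBP (5X stocks) in Tris pH 8.0, 300 mM NaCl, BSA, Tween 20, TCEP. Compounds preincubated 2 h at 37 deg C, then glutathione donor/nickel acceptor beads added for 1 h at 37 deg C in dark.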
gsp agonist: qHTS for Agonist of gsp, the Etiologic Mutation Responsible for Fibrous Dysplasia/McCune-Albright Syndrome: qHTS; Potency, µM (titrated, usually from 76.9 µM), for inactives: at the highest dose activation (cAMP increase), usual class: activators; gsp mutant cells, cAMP HTRF, 30 min; control for the full effect not named in the record; actives 0.13% (n = 340,000); active = well fitted activation curve with a large enough effect; inconclusive = small, poorly fitted or top-dose-only effect, or another doubt; inactive = no such curve, though single readings can be large or run the other way; cell line not stated here;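 further: phosphodiesterase inhibitor Ro 20-1724 added with compounds to block cAMP breakdown; potency means the concentration at half of the fitted maximal effect; nearly all actives have a fitted effect of over 60% in size; about a fifth of the inactives were tested at one dose only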
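Cells stably selected in G418 were plated at 2000/well, grown 16-24 hr, then given compounds in DMSO with the PDE inhibitor […] (300 uM solution added) for 30 min at 37C; cAMP was read by HTRF.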
D2 potentiator: Beta-Arrestin HTS for Positive Allosteric Modulators of the Human D2 Dopamine Receptor: Potentiators; DiscoveRx D2 beta-arrestin cells, luminescence, 90 min; 100% = 57 uM dopamine signal; potentiation, % (no concentration beside the values); AID 624464, 2012; D(2) dopamine receptor (Homo sapiens), P14416; actives 0.23% (n = 360,000); active = potentiation of 50% or more; inconclusive = 30% to 50%; inactive = 30% or less;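 further: compound concentration not given in the record; tested on top of an EC20 dose of dopamine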
Target sequence (P14416 whole entry, looked up): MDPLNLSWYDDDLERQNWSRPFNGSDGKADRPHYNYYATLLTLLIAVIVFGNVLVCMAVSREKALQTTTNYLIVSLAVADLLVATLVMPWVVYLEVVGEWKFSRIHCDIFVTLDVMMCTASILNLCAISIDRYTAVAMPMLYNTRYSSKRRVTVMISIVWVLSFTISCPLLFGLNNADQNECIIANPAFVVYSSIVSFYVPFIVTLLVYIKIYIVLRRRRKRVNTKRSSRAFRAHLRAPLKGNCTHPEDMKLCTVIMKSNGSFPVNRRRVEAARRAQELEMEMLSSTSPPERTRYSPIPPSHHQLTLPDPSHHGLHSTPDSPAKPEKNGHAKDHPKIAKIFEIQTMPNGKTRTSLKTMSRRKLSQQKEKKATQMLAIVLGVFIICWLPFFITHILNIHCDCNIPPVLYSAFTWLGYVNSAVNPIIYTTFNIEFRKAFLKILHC
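PathHunter D2 cells, attached overnight at 37 deg C, received compound in DMSO plus dopamine at EC20 (50 nM final) for 90 min at 37 deg C. Beta-arrestin recruitment was read as luminescence after 1 h with detection reagent at ambient temperature.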
D2 agonist: Beta-Arrestin HTS for Positive Allosteric Modulators of the Human D2 Dopamine Receptor: Agonists | D(2) dopamine receptor (Homo sapiens), P14416 | DiscoveRx PathHunter D2 beta-arrestin, luminescence, 90 min; 100% = 57 uM dopamine signal | activation, % (concentration not given with the values) | actives 0.084% (n = 360,000) | AID 624465, 2012; in the data active = activation above about 40%; inconclusive = about 15% to 40%; inactive = below about 15%; further: compound concentration not given in the record; the text of the record calls up to 30% inactive
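DiscoveRx PathHunter D2 beta-arrestin cells (2,100/well) attached overnight, then compound-stimulated 90 min at 37 C in HBSS/10 mM HEPES/0.1% Tween-20 buffer; beta-galactosidase complementation read by luminescence after 1 h at ambient temperature. Dopamine 57 uM final (EC100) as control.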
The depositor's hits bear a star; ? = inconclusive; . = no result given; [ ] = remark or other dose.

#1 COc1ccccc1C(=O)Nc1ccccc1C(=O)N1CCCC1
#2 Fc1ccc(/C=N/Nc2nc(-c3cccnc3)nc3ccccc23)cc1
#3 CCC1(c2ccc(OC)cc2)NC(=O)N(CC(=O)N2CCc3ccccc32)C1=O (configuration not stated)
#4 CC1CC(C)CN(S(=O)(=O)c2ccc3c(c2)oc(=O)n3CC(=O)N(C)Cc2ccccc2)C1 (configuration not stated)
#5 COc1ccc2nc3ccccc3nc2c1NC(=O)c1ccc(Br)cc1

Screen / compound no.	1	2	3	4	5
gsp agonist	-35%[inhibitor]	-1%[15.4 µM]	9%	?	15%
D2 agonist	-1.3	-1.8	-5.6	1.4	-3.6
Six1-Eya2 blk	-5	-24	-2	-5	-5
gsp antagonist	1%	-16%	11%	-4%	1%
D2 potentiator	-11	-8	-5	-5	-35
CtBP-E1A blk	4	-20	0	5	1

#6 CCN(C(=O)c1cccc(Br)c1)c1ccccc1
#7 C=CC[C@@H](CC(=O)NCCO)C(=O)N[C@@H](COC(=O)[C@@H](CC=C)CC(=O)OC(C)(C)C)Cc1c[nH]c2ccccc12
#8 CCOC(=O)[C@H]1[C@H]2COc3ccc(Br)cc3[C@@H]2N2C(=O)c3cc(Br)ccc3NC(=O)[C@@]12C
#9 CCc1ccc(C(=O)COC(=O)c2cc([N+](=O)[O-])ccc2NCCO)cc1
#10 CCOc1ccc(NS(=O)(=O)c2cc(NC(=O)CCS(=O)(=O)c3ccc(C)cc3)ccc2OC)cc1

Screen / compound no.	6	7	8	9	10
gsp agonist	12%[15.4 µM]	-12%	7%	64%[15.4 µM]	20%
D2 agonist	0.3	4.0	0.8	-3.7	0.1
Six1-Eya2 blk	13	-3	1	-14	0
gsp antagonist	5%	-5%	-6%	3%	0%
D2 potentiator	-9	5	-2	-7	-29
CtBP-E1A blk	0	4	.	-16	3

#11 CC1(C)Cc2ccccc2-c2nnc(C(F)(F)F)n21
#12 COc1ccccc1NC(=O)C1CCN(S(=O)(=O)c2cccc3nonc23)CC1
#13 O=C(NC1CCCCC1)C(c1cccnc1)N(C(=O)c1ccc(Cl)nc1)C1CCCCC1 (configuration not stated)
#14 COc1ccc(N2CCN(C(=O)COC(=O)COc3cccc(C(F)(F)F)c3)CC2)cc1
#15 CCOC(=O)COc1ccc2nsnc2c1Cl

Screen / compound no.	11	12	13	14	15
gsp agonist	?	1%	-6%[15.4 µM]	-12%	0%
D2 agonist	-2.8	2.3	-1.9	-5.4	-0.1
Six1-Eya2 blk	-2	-5	1	-3	10
gsp antagonist	12%	-19%	11%	-4%	?
D2 potentiator	-16	2	-4	-4	-3
CtBP-E1A blk	-12	-2	0	2	1

#16 CCOC(=O)c1ccc(NC(=O)CCc2nc(-c3ccc(C)cc3)no2)cc1
#17 O=C(OCCN1C(=O)c2ccccc2C1=O)c1ccc(S(=O)(=O)N2CCCCCC2)cc1
#18 CCC(=O)Nc1ccc(N/C(N)=N/c2nc(C)cc(C)n2)cc1
#19 CCOc1ccc(-n2c(C)c(C(=O)OC)c3cc(O)ccc32)cc1
#20 O=C(NCc1cccc(C(F)(F)F)c1)c1csc([C@H]2C[C@H](O)[C@@H](CO)O2)n1

Screen / compound no.	16	17	18	19	20
gsp agonist	-34%[inhibitor]	-25%	-1%	-1%[15.4 µM]	.
D2 agonist	0.4	-3.5	-2.7	4.3	-5.0
Six1-Eya2 blk	4	-1	-3	-7	2
gsp antagonist	?	-18%	-5%	2%	.
D2 potentiator	-7	10	-21	-4	-15
CtBP-E1A blk	9	-2	.	-3	2

10 entries from above, ordered by SMILES length, low to high:
#15 CCOC(=O)COc1ccc2nsnc2c1Cl
#11 CC1(C)Cc2ccccc2-c2nnc(C(F)(F)F)n21
#1 COc1ccccc1C(=O)Nc1ccccc1C(=O)N1CCCC1
#5 COc1ccc2nc3ccccc3nc2c1NC(=O)c1ccc(Br)cc1
#16 CCOC(=O)c1ccc(NC(=O)CCc2nc(-c3ccc(C)cc3)no2)cc1
#12 COc1ccccc1NC(=O)C1CCN(S(=O)(=O)c2cccc3nonc23)CC1
#17 O=C(OCCN1C(=O)c2ccccc2C1=O)c1ccc(S(=O)(=O)N2CCCCCC2)cc1

Screen / compound no.	15	11	1	5	16	12	17
gsp agonist	0%	?	-35%[inhibitor]	15%	-34%[inhibitor]	1%	-25%
D2 agonist	-0.1	-2.8	-1.3	-3.6	0.4	2.3	-3.5
Six1-Eya2 blk	10	-2	-5	-5	4	-5	-1
gsp antagonist	?	12%	1%	1%	?	-19%	-18%
D2 potentiator	-3	-16	-11	-35	-7	2	10
CtBP-E1A blk	1	-12	4	1	9	-2	-2

#20 O=C(NCc1cccc(C(F)(F)F)c1)c1csc([C@H]2C[C@H](O)[C@@H](CO)O2)n1
#10 CCOc1ccc(NS(=O)(=O)c2cc(NC(=O)CCS(=O)(=O)c3ccc(C)cc3)ccc2OC)cc1
#8 CCOC(=O)[C@H]1[C@H]2COc3ccc(Br)cc3[C@@H]2N2C(=O)c3cc(Br)ccc3NC(=O)[C@@]12C

Screen / compound no.	20	10	8
gsp agonist	.	20%	7%
D2 agonist	-5.0	0.1	0.8
Six1-Eya2 blk	2	0	1
gsp antagonist	.	0%	-6%
D2 potentiator	-15	-29	-2
CtBP-E1A blk	2	3	.
